Screening results: PubChem BioAssay, National Center for Advancing Translational Sciences (NCATS)
VDR inh: vitamin D3 receptor (human) inhibition | P11473 | VDR-SRC2-3 peptide fluorescence polarization, 2 h | Potency, µM, for the others: max response, negative = inhibition, most hits filed as inhibitors | hit rate 0.93% among 400,000; active means well fitted inhibition curve with a large enough effect; inconclusive means small, poorly fitted or top-dose-only effect, or another doubt; inactive means no such curve, though single readings can be large or run the other way; further: series mostly up to about 120 µM
Target sequence (P11473 whole entry, looked up): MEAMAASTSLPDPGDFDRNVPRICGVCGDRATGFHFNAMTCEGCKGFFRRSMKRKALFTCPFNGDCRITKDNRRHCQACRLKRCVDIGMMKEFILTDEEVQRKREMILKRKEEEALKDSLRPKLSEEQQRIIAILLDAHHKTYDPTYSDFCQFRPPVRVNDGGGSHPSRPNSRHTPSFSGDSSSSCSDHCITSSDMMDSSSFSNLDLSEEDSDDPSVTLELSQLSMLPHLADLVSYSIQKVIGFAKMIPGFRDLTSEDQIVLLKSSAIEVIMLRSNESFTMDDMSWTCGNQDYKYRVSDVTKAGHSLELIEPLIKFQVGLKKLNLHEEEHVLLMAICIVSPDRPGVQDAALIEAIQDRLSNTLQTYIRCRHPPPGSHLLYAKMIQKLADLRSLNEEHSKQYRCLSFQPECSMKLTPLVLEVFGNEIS
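Compounds are added to VDR with labelled SRC2-3 coactivator peptide and held 2 h at room temperature. Inhibition of the VDR–peptide interaction is then read as a change in fluorescence polarization.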
* = called active by the depositor; u = inconclusive; & = joins results of further samples; ! = a repeat was not active. On the % scale 0 is the no-effect control and ±100 the full control effect; potency means the concentration at half of the fitted maximal effect. Not all compounds are listed. The share of hits here may be higher or lower than overall.

SMILES	VDR inh
O=C(c1ccc(Nc2nc3ccccc3n3nnnc23)cc1)N1CCN(c2cccc(C(F)(F)F)c2)CC1	-7%
CCCCC1(C2CCCC2)NC(=O)NC1=O (stereo unspecified)	-1%
CN1C/C(=C/c2ccncc2)C(=O)/C(=C/c2ccncc2)C1	-7%
CCc1c(C(=O)c2ccc(Cl)cc2)oc2c(C)c3oc(=O)cc(C)c3cc12	-5%
COc1cccc(CNC(=O)c2ccc3c(c2)nc2n3CCC(C)C2)c1OC (stereo unspecified)	11%
CN(C)CCCN(C(=O)c1ccc2c(c1)OCCO2)c1nc2ccccc2s1	13%
Cc1cccc(N(Cc2cc3cc(C)ccc3[nH]c2=O)C(=O)c2cccs2)c1	4%
CCN(CC)S(=O)(=O)c1ccc(NC(=O)CN(c2ccc(OC)cc2OC)S(C)(=O)=O)cc1	1%
Cc1ccccc1NS(=O)(=O)c1cccc(-c2nnc(-c3ccccc3)o2)c1	-13%
COc1ccc(S(=O)(=O)NNC(=O)Nc2ccc(F)cc2F)c(OC)c1	-24%
O=C(CN1C(=O)c2ccccc2S1(=O)=O)Nc1ccc(S(=O)(=O)N2CCCCCC2)cc1	5%
O=C(Oc1ccc2c(-c3ccccc3)cc(=O)oc2c1)C1CCCCC1	2%
CC1CCC(NCCNC(=O)c2ccco2)CC1 (stereo unspecified)	-6%
Cc1ccc(C(=O)NCCNc2ccc([N+](=O)[O-])cc2C(F)(F)F)cc1	18%
Cc1ccccc1CSc1nc(-c2cccc(F)c2)nc2c1Cc1c(CO)cnc(C)c1O2	-3%
COC(=O)[C@H](C)NC(=O)Nc1cccc(C)c1	5%
Cc1ccccc1-n1c(=O)cc(N2CCC3(CC2)OCCO3)[nH]c1=O	-12%
CC(C)(C)[C@H]1COC(=O)CC/C=C\C[C@@H](CC(=O)N[C@H](CO)Cc2ccccc2)C(=O)N1	-7%
Cc1nc2c(-c3ccccc3)c(C)nn2c(C)c1CCC(=O)O	-12%
O=c1cc(CSc2nnc(-c3cccs3)n2Cc2ccccc2)nc2sc3ccccc3n12	-1%
CCOc1ccc(/C=N/NC(=O)c2ccc(Cn3cc([N+](=O)[O-])cn3)o2)cc1	17%
c1ccc(COCCCn2cc(-c3ccccc3)nn2)cc1	-5%
Cc1cc(OC(C)C(=O)NCCCN2CCOCC2)c2c(C)cc(=O)oc2c1 (stereo unspecified)	u
O=C(c1cccc(F)c1)N1CCC[C@@]2(CCN(C(c3ccccc3)c3ccccc3)C2)C1	u
CCC(=O)N1CCc2cc(S(=O)(=O)CCC(=O)Nc3cccc(C)n3)ccc21	-6%
C=CCN1C(=O)[C@]2(c3ccccc31)C1CCCC=C1C(C#N)=C(N)C2(C#N)C#N (stereo partly specified)	4%
N=C(N)SCc1nc2ccccc2c(=O)n1-c1ccccc1	u
Cc1nnc(SCC(=O)NNC(=O)c2ccc(Br)cc2)n1C	25%
CCCCC(C(=O)O)C(C)CC(=O)Nc1nncs1 (stereo unspecified)	-23%
CCC(C(=O)Nc1c2c(nn1C(C)(C)C)CS(=O)(=O)C2)c1ccccc1 (stereo unspecified)	-15%
CC(CNc1ccccc1O)C(=O)O (stereo unspecified)	1%
O=C(CC1C(=O)NCCN1Cc1ccc(-c2ccccc2)cc1)NCCOc1cccnc1 (stereo unspecified)	-11%
COC(=O)c1c(NC(=O)CCNCc2ccco2)sc2c1CCC2	11%
CNc1c([N+](=O)[O-])cnn1-c1ccc(F)cc1	-5%
O=c1[nH]c(-c2ccccc2O)nc2ccccc12	-5%
Cc1ccc(NC(=O)CSc2ncc(-c3ccccc3)n2C(=O)c2ccccc2)cc1	-17%
CCC1CCCCN1CCCNC(=O)C1CCC(Cn2c(=O)[nH]c3ccccc3c2=O)CC1 (stereo unspecified)	-1%
CC(C)=CCCC1(C)C=Cc2c(ccc3c2[nH]c2cc(O)c(C)cc23)O1 (stereo unspecified)	11%
CC(C)c1ccc(NC(=O)C(c2ccccc2)N2CCN(C=O)CC2)cc1 (stereo unspecified)	0%
Cc1ncsc1CCSc1nc2ccccc2c(=O)n1C	-12%
Cc1cc(NC(=O)CCN2C(=O)/C(=C\c3ccccc3Cl)SC2=S)no1	6%
CCCCOCCCNC(=O)c1cccc(OC)c1	-23%
O=C(O)c1ccc(N2C(=O)CC(Cc3ccccc3)C2=O)cc1 (stereo unspecified)	-10%
CC(=O)NC1=NN(C(C)=O)C(C)(c2ccccc2)S1 (stereo unspecified)	3%
CS(=O)(=O)NCCOc1ccc(S(=O)(=O)N2CCCc3ccccc32)cc1	-1%
C[C@H]1CN([C@@H](C)CO)C(=O)Cc2cc(NS(=O)(=O)c3cn(C)cn3)ccc2O[C@@H]1CN(C)C(=O)Nc1ccc(F)cc1	-15%
COc1ccc(C(CNC(=O)CNC(=O)c2ccc(F)cc2)N2CCCC2)cc1 (stereo unspecified)	9%
COc1ccc(/C=N/N=C2/NC(=O)C(CC(=O)O)S2)cc1OCc1ccc(Cl)cc1 (stereo unspecified)	-20%
CCO[C@@H]1OC(C(N)=O)=C[C@H](c2cn(C(C)=O)c3ccccc23)[C@H]1CCCO	-5%
Cc1ccc(-c2[nH]nc3c2C(c2ccsc2)C(C#N)=C(N)O3)cc1 (stereo unspecified)	4%
CN1c2cccc3cccc(c23)N(C)C1(C)C	-10%
Cc1cc(OC(F)F)ccc1NC(=S)NCCc1ccccc1	-11%
Cc1nn(-c2ccccc2)c(OC(=O)c2ccccc2Cl)c1S(=O)(=O)c1ccccc1	-2%
Cc1ccc(-n2c(C)nnc2SCC(=O)Nc2ccccc2)cc1	-25%
CC(C(=O)Nc1ccc(F)c(F)c1F)N(C)Cc1cccs1 (stereo unspecified)	-10%
COc1cc(C2C3=C(COC3=O)Oc3cc4c(cc32)OCO4)cc(OC)c1O (stereo unspecified)	-7%
COc1ccc(Cl)cc1C(=O)NNC(=O)COC(=O)c1ccc(Br)o1	-6%
COc1ccccc1N1CCN(S(=O)(=O)c2cccs2)CC1	4%
COc1ccc([C@@H]2[C@@H]3C(=O)N(C(C)(C)C)C(=O)[C@@H]3[C@]3(C)C(=O)N(c4cccc(C)c4)C(=O)N23)cc1	-8%
Cc1cc(N)n(-c2ccccc2)n1	-20%

Sorted by the number under VDR inh (high to low): three from the list above
SMILES	VDR inh
Cc1nn(-c2ccccc2)c(OC(=O)c2ccccc2Cl)c1S(=O)(=O)c1ccccc1	-2%
COc1cc(C2C3=C(COC3=O)Oc3cc4c(cc32)OCO4)cc(OC)c1O (stereo unspecified)	-7%
CN1c2cccc3cccc(c23)N(C)C1(C)C	-10%

(further entries)
SMILES	VDR inh
COC(CNC(=O)C1CCCN1C(=O)OCc1ccccc1)OC (stereo unspecified)	-9%
O=C(Cn1c(=O)n(CCCS(=O)(=O)C2CCCCC2)c(=O)c2ccccc21)Nc1ccc(F)c(Cl)c1	-4%
Cc1ccc(C)c(NC(=O)CSc2nc(=O)n(Cc3ccncc3)c3c2CCC3)c1	15%
Nc1nonc1-c1noc(CCCOc2ccc(Cl)cc2Cl)n1	-1%
CC(C)(C)C(=O)NNC(=O)c1cnccn1	-6%
CCc1ccc(C(=O)c2cn(CC(=O)Nc3cccc(C)c3C)c3nc(C)ccc3c2=O)cc1	6%
O=C(CNS(=O)(=O)c1cccs1)NCc1ccc(F)cc1	2%
COc1ccccc1-c1nc(SCc2ccccn2)n[nH]1	2%
CCN(C(=O)c1cc2c(=O)n3ccccc3nc2n1C)C1CCCCC1	3%
COc1cc(OC)c(C2CC(=O)N3CN(c4ccccc4)CSC3=C2C#N)cc1OC (stereo unspecified)	10µM*
CC(=O)N1CCOc2cc(S(=O)(=O)NCc3ccccc3Cl)c(Cl)cc21	-2%
CN(C)c1nc(-c2cccnc2)nc2ccccc12	-16%
O=C(c1ccccc1)c1cc(F)c(N2CCOCC2)cc1Cl	-5%
COc1cc(NC(=O)c2ccccc2)c(OC)cc1NC(=O)Cc1ccc(Br)cc1	12%
CCC(C)NS(=O)(=O)c1ccc(OCC(=O)Nc2ccc(F)cc2F)cc1 (stereo unspecified)	8%
CCOC(=O)c1cc(NC(=O)Nc2cc(C)ccn2)c(C)nc1C	-22%
CCn1c(=O)c2sccc2n(Cc2ccc(C)cc2)c1=O	1%
Cc1ccc(Cl)cc1N1CCN(C(=O)c2cnc(N3CCOCC3)c3ccccc23)CC1	7%
CCCOc1cccc(C(=O)NCCCNC(=O)c2ccccn2)c1	-11%
COC1(NS(=O)(=O)c2ccc(Br)cc2)C(C)=CC(=O)C=C1C	9%
Cc1cc(=O)[nH]c(N=N/C(=N/Nc2ccc(O)cc2)c2ccccc2)n1	-24%
Cc1ccc(S(=O)(=O)NCC(c2ccco2)N2CCN(c3ccccc3F)CC2)cc1 (stereo unspecified)	9%
Cc1oc2c(CN(C)C)c(O)ccc2c(=O)c1-c1ccc2ccccc2n1	-2%
Cc1ccc(N2C(=O)NC3(CCCCC3)C2=O)cc1	0%
OCCN1CCN(Cc2cccc(Oc3ccc(Cl)cc3)c2)CC1	-4%
Cn1nc(-c2ccc(F)cc2)nc2c(=O)n(C)c(=O)nc1-2	-4%
COc1ccccc1N1CCN(Cc2nnnn2CCc2ccccc2)CC1	10%
CC(=O)Nc1cccc(C(=O)OC(C)C(=O)N2CCc3ccccc32)c1 (stereo unspecified)	-17%
O=c1c2ccccc2nc(N/N=C/c2ccccc2)n1O	-4%
Cc1cc(=O)oc2c(O)c(O)ccc12	71µM*!
O=c1[nH][nH]c(=O)c2cc([N+](=O)[O-])ccc12	10%&-18%
COC(=O)CCCCCC(CCC(=O)OC)NC(C)=O (stereo unspecified)	9%
Cc1ccc(S(=O)(=O)NCC(=O)OCC(=O)Nc2ccc3c(c2)OCCO3)cc1	8%
COc1ccc(S(=O)(=O)Nc2cccc3c2O[C@@H](CN(C)CC2CC2)[C@@H](C)CN([C@@H](C)CO)C3=O)cc1	-19%
CCCNC(=O)c1cc(Cl)c(NC(=O)C2=C(C)OCCS2)cc1OC	6%
Cc1ccc(C(CC(=O)O)Nc2nc(N3CCOCC3)nc(N3CCOCC3)n2)cc1 (stereo unspecified)	-5%

In the list so far, these contain a CF3 group.
SMILES	VDR inh
O=C(c1ccc(Nc2nc3ccccc3n3nnnc23)cc1)N1CCN(c2cccc(C(F)(F)F)c2)CC1	-7%
Cc1ccc(C(=O)NCCNc2ccc([N+](=O)[O-])cc2C(F)(F)F)cc1	18%

Carrying on.
SMILES	VDR inh
CN(CC(=O)NCc1ccccc1Cl)S(=O)(=O)c1ccc2c(c1)c(=O)n(C)c(=O)n2C	-4%
CCCCNC(=O)C(CC)Sc1nc2ccccc2c(=O)n1Cc1ccco1 (stereo unspecified)	6%
COc1ccccc1-c1nnc(SC(C)C(=O)N2CCOCC2)o1 (stereo unspecified)	-7%
COCCC1CCCCN1C(=O)c1ccc(OC)c(OC2CCN(C(C)=O)CC2)c1 (stereo unspecified)	-12%
CC(C)(C)OC(=O)N1CCC(c2c(C(=O)NCCN3CCOCC3)cnn2-c2ccccc2)CC1	6%
CCN(CC(=O)Nc1ccc(OC)cc1)C(=O)c1ccc(N2CCCC2=O)cc1	-23%
CC1CCc2c(sc(NC(=O)c3cc(-c4ccc(Br)cc4)on3)c2C(N)=O)C1 (stereo unspecified)	-8%
CCOc1ccc(NC(=O)Cn2c(=O)n(CCCCCC(=O)NCc3ccccc3)c(=O)c3sccc32)cc1	16%
Cc1cccc(OCC(=O)N2CCC(c3ccccc3)C2)c1 (stereo unspecified)	-5%
O=C(CSc1nc(C2CC2)nc2c1cnn2-c1ccccc1)Nc1c[nH]c(=O)[nH]c1=O	4%
COCCNC(=S)NNC(=O)c1ccco1	-9%
Cc1ccc(NC2CCCN(C(=O)CCC3=NNC(=O)CC3)C2)cc1C (stereo unspecified)	-5%
COc1ccc(S(=O)(=O)NNC(=O)c2cc3c4ccccc4n(C)c3s2)cc1	12%
CCCCN1C(N)=NC[C@@H]1C(C)O (stereo partly specified)	0%
COc1ccc(NC(=O)C23CC4CC(C2)CC(n2cnc(Br)n2)(C4)C3)c(C)c1	0%
Cc1ccc(NS(=O)(=O)c2cc(NC(=O)c3cc4c(s3)CCCC4)ccc2C)c(C)c1	2%
Cc1ccc(NC(=O)Cn2c(=O)n(CCC(=O)NCCc3ccccc3)c(=O)c3ccccc32)cc1	-3%
COc1ccc(S(=O)(=O)N2CCC(C(=O)NCC3CCCO3)CC2)cc1 (stereo unspecified)	0%
N#Cc1ccccc1Cn1c(=O)n(CCCCC(=O)NCc2ccc3c(c2)OCO3)c(=O)c2ccccc21	1%
COc1ccc(S(=O)(=O)N2CCc3ccccc32)cc1C(=O)OCC(=O)c1c(N)n(C)c(=O)n(C)c1=O	-11%
O=C(CCl)N1c2ccccc2OCC1c1ccccc1 (stereo unspecified)	-27%
CCOC(=O)CC1COCCN1Cc1cn[nH]c1-c1cc(OC)c(OC)c(OC)c1 (stereo unspecified)	13%
O=C(Cc1ccccc1)Nc1c(C(=O)Nc2ccccc2F)oc2ccccc12	-11%
CC(=O)NCCn1c(SCC(=O)NCC2CCCO2)nc2ccccc2c1=O (stereo unspecified)	18%
CN(C)CCCNC(=O)c1cc(S(=O)(=O)N2CCOCC2)ccc1F	-6%

7 compounds picked at random from those above, as already listed:
SMILES	VDR inh
CN(CC(=O)NCc1ccccc1Cl)S(=O)(=O)c1ccc2c(c1)c(=O)n(C)c(=O)n2C	-4%
Cc1cc(N)n(-c2ccccc2)n1	-20%
Cc1ncsc1CCSc1nc2ccccc2c(=O)n1C	-12%
Cc1ccc(C(CC(=O)O)Nc2nc(N3CCOCC3)nc(N3CCOCC3)n2)cc1 (stereo unspecified)	-5%
CCCCC1(C2CCCC2)NC(=O)NC1=O (stereo unspecified)	-1%
O=C(CNS(=O)(=O)c1cccs1)NCc1ccc(F)cc1	2%
COc1ccc(/C=N/N=C2/NC(=O)C(CC(=O)O)S2)cc1OCc1ccc(Cl)cc1 (stereo unspecified)	-20%
